# Sfp PPTase inh: blocks B. subtilis Sfp PPTase activity; Biochemical Sfp PPTase activity, qHTS; Potency, µM, inactives show max response, negative = inhibition, actives largely listed as inhibitors; 310,000 tested, 3.5% active; AID 1490; active means well fitted inhibition curve with a large enough effect; inconclusive means small, poorly fitted or top-dose-only effect, or another doubt; inactive means no such curve, though single readings can be large or run the other way;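 further: the enzyme is Sfp with the accession as filed and its product quenches rhodamine fluorescence; potency means the concentration at half of the fitted maximal effect; 0% = enzyme reaction without inhibitor and -100% = no enzyme wells; top concentration of the series not given in the record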
#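 Sfp 15 nM + cpd, 15 min RT; start w/ rhodamine-CoA 5 uM, BHQ-2-YbbR 12.5 uM (final); 50 mM Hepes pH 7.6, 10 mM MgCl2, 0.01% NP-40, 0.01% BSA; read 525/598 nm at 0 and 30 min.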
# gsp ag: agonists of gsp mutant (McCune-Albright syndrome) | Potency, µM (doses to about 76.9 µM), for inactives: at the top dose activation (cAMP increase), most hits filed as activators | 340,000 tested, 0.13% active | gsp mutant cells, cAMP HTRF, 30 min; control for the full effect not named in the record | AID 624287; active = well fitted activation curve with a large enough effect; inconclusive = small, poorly fitted or top-dose-only effect, or another doubt; inactive = no such curve, though single readings can be large or run the other way; cell line not stated here;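 further: phosphodiesterase inhibitor Ro 20-1724 added with compounds to block cAMP breakdown; potency means the concentration at half of the fitted maximal effect; nearly all actives have a fitted effect of over 60% in size; about a fifth of the inactives were tested at one dose only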
#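 Cells in DMEM/10% FBS with G418 were pretreated with compounds in DMSO plus […] (300 uM stock) for 30 min at 37C. cAMP was measured by HTRF (cAMP-d2 plus anti-cAMP antibody-K) after 30 min at room temperature.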
# PINK1 expr mod: modulators of PINK1 expression | PINK1 immunofluorescence, high-content cytometry, 24 h | Potency, µM (titrated, usually from 76.6 µM), for the others: at the top dose activation (PINK1 increase), usual class: activators | 410,000 tested, 0.2% active; active = well fitted activation curve with a large enough effect; inconclusive = small, poorly fitted or top-dose-only effect; inactive = flat fitted curve, though single readings scatter; cell line not stated here;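 further: potency means the concentration at half of the fitted maximal effect; % of control where 0% means no effect; nearly all actives have a fitted effect of over 65% in size; a mitochondrial uncoupler was the plate control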
#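 Stable cell line treated 24 h with compounds at 5 concentrations (CCCP controls), then fixed and immunostained for PINK1 plus nuclear and cell stains; PINK1 immunofluorescence quantified by laser-scanning microplate cytometry.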
# ClpP mod: qHTS Assay for Activators of ClpP | Potency, µM (highest dose often 57.5 µM), for the others: at the highest dose activity change, negative = active | purified B. subtilis ClpP, FRET peptide cleavage, 20 min | 340,000 tested, 1.9% active | ATP-dependent Clp protease proteolytic subunit (Bacillus subtilis (strain 168)), P80244; active = well fitted falling curve with a large enough effect; inconclusive = small, poorly fitted or top-dose-only effect; inactive = no such curve, though single readings can be large or run the other way; further: potency means the concentration at half of the fitted maximal effect; the source files actives as falling curves though it sought activators and does not explain the sign; nearly all actives have a fitted effect of over 65% in size; many hits overshoot -100%
# Target sequence (P80244 whole entry, looked up): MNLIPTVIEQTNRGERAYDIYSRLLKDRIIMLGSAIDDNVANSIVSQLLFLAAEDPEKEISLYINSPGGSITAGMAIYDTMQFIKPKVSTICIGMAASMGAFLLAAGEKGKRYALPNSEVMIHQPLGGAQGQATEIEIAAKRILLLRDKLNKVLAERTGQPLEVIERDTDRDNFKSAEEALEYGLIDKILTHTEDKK
#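 Purified B. subtilis ClpP, 10 microg/mL final in Tris/HCl pH8 with KCl, BSA, glycerol and Tween-20, cleaved an Abz/nitrotyrosine-quenched decapeptide. Fluorescence (ex 320, em 430) was read at 0 and 20 min at room temperature. Delta was normalized to 5.8 microM ADEP and DMSO/no-enzyme controls.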
# D2 agonist: activates the human D2 dopamine receptor | P14416 | DiscoveRx PathHunter D2 beta-arrestin, luminescence, 90 min; 100% = 57 uM dopamine signal | activation, % (test concentration not listed) | 360,000 tested, 0.084% active | AID 624465; in the data active = activation above about 40%; inconclusive = about 15% to 40%; inactive = below about 15%; further: compound concentration not given in the record; the text of the record calls up to 30% inactive
# Target sequence (P14416 whole entry, looked up): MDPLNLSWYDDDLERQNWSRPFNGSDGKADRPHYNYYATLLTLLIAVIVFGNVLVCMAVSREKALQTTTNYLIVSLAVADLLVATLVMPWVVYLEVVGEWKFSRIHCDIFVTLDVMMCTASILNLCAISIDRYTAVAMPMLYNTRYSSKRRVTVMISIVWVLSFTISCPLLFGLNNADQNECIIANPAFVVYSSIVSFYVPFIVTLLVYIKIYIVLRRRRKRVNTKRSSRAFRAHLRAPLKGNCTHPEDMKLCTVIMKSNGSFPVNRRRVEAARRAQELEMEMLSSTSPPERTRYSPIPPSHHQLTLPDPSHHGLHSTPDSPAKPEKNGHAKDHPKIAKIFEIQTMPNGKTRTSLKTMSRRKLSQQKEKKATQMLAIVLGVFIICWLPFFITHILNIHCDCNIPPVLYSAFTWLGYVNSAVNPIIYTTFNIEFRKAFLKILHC
#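 DiscoveRx PathHunter D2 beta-arrestin cells (2,100/well) attached overnight, then compound-stimulated 90 min at 37 C in HBSS/10 mM HEPES/0.1% Tween-20 buffer; beta-galactosidase complementation read by luminescence after 1 h at ambient temperature. Dopamine 57 uM final (EC100) as control.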
# gsp antag: antagonists of gsp mutant (McCune-Albright syndrome) | Potency, µM (titrated, usually from 76.9 µM), without a hit: at the highest dose activity change, negative = inhibition, actives largely listed as inhibitors | 340,000 tested, 0.4% active | gsp-mutant cells, cAMP HTRF, 30 min; control for the full effect not named in the record; active = falling curve of any shape with a large fitted effect; inconclusive = falling curve, mostly with a smaller effect; inactive = flat or rising curve; cell line not stated here;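 further: intracellular cAMP measured with PDE inhibitor Ro 20-1724 present during compound exposure; potency means the concentration at half of the fitted maximal effect; on the % scale 0 is the no-effect control and ±100 the full control effect; nearly all actives have a fitted effect of over 65% in size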
#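 Cells in G418 medium, seeded 16-24 h, 37C; buffer exchange to DPBS + 1 mM CaCl2, 0.5 mM MgCl2, 0.05% BSA; cpds in DMSO + […] (300 uM stock), 30 min 37C; HTRF cAMP detection.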
# Menin-MLL FL inh: menin-MLL binding inhibition, fluorescein peptide; 290,000 tested, under 10 active; Fluorescence polarization, fluorescein-MLL peptide displacement from menin; FP activity change, % at 61.4 µM; inconclusive = falling polarisation curve, or a change in total fluorescence; inactive = total fluorescence flat and polarisation flat or rising; no compound was filed as active; the % refers to the polarisation; negative = inhibition;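 further: % of control where 0% means no effect; inhibitors lower the polarisation; unlabelled MLL peptide was the positive control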
# Active calls of the source: *; ? = inconclusive; nt = not tested or not shown; [ ] = dose if it differs, or a comment. Hits appear at their usual frequency; 5.1% or so of the library scored in one or more.
SMILES,Sfp PPTase inh,gsp ag,PINK1 expr mod,ClpP mod,D2 agonist,gsp antag,Menin-MLL FL inh
O=S(=O)(Nc1ccc(O)c(NS(=O)(=O)c2ccccc2)c1)c1ccccc1,39.8µM*,?,0.1%,2.8%,?,-9.5%,nt
c1ccc2c3nnc4n(c-3nc2c1)CCCS4,4.6%,15.8%,18.5%[38.3 µM],-1.5%,-1.0,-19.4%,1.3
Cc1cc(C)n2nc(C(=O)OCC(=O)Nc3ccc4c(c3)OCO4)nc2n1,4.9%,10.7%,-2.0%,-0.8%,0.5,3.3%,0.3
CCc1ccccc1NC(=O)CN(C)C(=O)CSc1nn(-c2ccccc2)c(=S)s1,5.9%,-31.9%,2.7%,0.6%,-2.3,7.7%,-1.9
COC(=O)c1cc(S(=O)(=O)N2CCCC(C)C2)c[nH]1 (stereo not drawn),4.4%,?,0.5%,0.3%,3.6,5.1%,1.8
CN(N)c1nc(C(F)(F)F)nc2ccccc12,9.0%,12.3%,0.6%,nt,-1.3,-0.5%,3.7
CCc1ccc(C2NC(=O)c3ccccc3O2)cc1 (stereo not drawn),10.9%,19.7%[15.4 µM],-1.4%,-0.4%,-4.6,1.0%,-1.0
COc1cccc2c(=O)n(CC(=O)Nc3ccccc3F)ccc12,7.5%,26.3%,6.0%,?,2.1,10.6%,7.6
O=C(Nc1nccs1)C1CCCN1S(=O)(=O)c1ccc(F)cc1 (stereo not drawn),7.2%,22.6%,2.1%,1.1%,-1.5,-1.1%,-1.9
CC1CN(S(=O)(=O)c2cccc(C(=O)NCCc3ccc(S(N)(=O)=O)cc3)c2)CC(C)O1 (stereo not drawn),nt,-2.7%,-1.6%,nt,0.5,-2.5%,nt
COc1ccc(CCNC(=O)CCC(=O)NC2CCCC(C)C2C)cc1OC (stereo not drawn),13.8%,-2.2%,3.7%,nt,0.3,6.2%,-0.8
COc1ccc(NC(=O)CSc2nnc(-c3ccncc3)n2CC2CCCO2)c(OC)c1 (stereo not drawn),13.6%,21.2%,-0.5%,-0.7%,-1.0,-2.8%,4.3
Cc1cccc(NC(=O)C2CCCN(c3ncnc4c3nc3n4CCCCC3)C2)n1 (stereo not drawn),6.6%,-35.2%,-0.9%,1.4%,13.1,-17.1%,-1.0
CCOC(=O)/C(C#N)=N/Nc1ccccc1C#N,12.8%,7.4%,1.4%,-1.4%,-5.6,-20.8%,0.8
Cc1ccc2[nH]c(C(=O)NCCN3CCCC3)cc2c1,0.8%,0.0%,1.6%,nt,2.0,6.2%,0.3
C=CCNC(=O)c1ccc(N(Cc2ccc(Cl)cc2)S(C)(=O)=O)cc1,7.0%,8.8%,0.4%,-0.4%,3.8,-2.9%,-4.9
COc1ccc(OC)c(NC(=O)c2ccc(CN3CCOCC3)cc2)c1,-10.3%,4.5%,-1.9%,-3.6%,-1.7,1.9%,5.8
CCC(C)[C@H]1CNCCN1CCc1cccc2ccccc12 (stereo partly drawn),nt,nt,2.5%,-3.5%,-0.9,13.1%,nt
COCCOc1ccc(C(F)(F)F)cc1NC(=O)c1ccccc1,12.5%,2.5%[15.4 µM],3.1%,0.0%,-1.0,7.3%,2.1
COc1ccc(S(=O)(=O)NC(C)C(=O)NC2CC2)cc1C (stereo not drawn),24.9%,28.3%,2.0%,0.3%,-4.4,-9.0%,nt
Cn1ccnc1Sc1nc(Nc2cccc(Cl)c2)nc(N2CCOCC2)n1,6.4%,-12.7%,nt,1.1%,-2.2,8.0%,-0.3
O=c1cnc2ccccc2n1Cc1ccc(Br)cc1,7.5%,24.1%[15.4 µM],7.5%,nt,-2.8,0.9%,-0.1
COC(=O)c1n[nH]nc1-c1ccccc1,6.2%,-19.8%,-0.1%,1.4%,-3.1,2.3%,1.0
NS(=O)(=O)c1ccc(CCNCc2cc(Cl)ccc2OCc2ccccc2)cc1,-26.6%,4.5%,-0.5%,nt,-4.2,-5.5%,-1.8
COc1ccccc1OCCC(=O)Nc1cccc(S(=O)(=O)N2CCOCC2)c1,nt,9.3%,-1.2%,2.2%,-0.5,-5.7%,nt

# The results go on:
SMILES,Sfp PPTase inh,gsp ag,PINK1 expr mod,ClpP mod,D2 agonist,gsp antag,Menin-MLL FL inh
CC(=O)Nc1cc(-c2cccc(C(=O)NCCO)c2)cn2c(-c3ccc(F)cc3)cnc12,nt,nt,-0.2%,-7.8%,4.7,nt,nt
COc1cc(OC)c(NC(=S)Nc2cccc(C(C)=O)c2)cc1Cl,-11.9%,-15.8%,-0.5%,-2.7%,-3.0,-7.9%,2.2
CC(=O)c1cccc(CN2CCN(CCC(C)C)C(CCO)C2)c1 (stereo not drawn),20.8%,2.8%[15.4 µM],-0.6%,nt,1.1,3.0%,0.5
CCc1nc(SCC(=O)OC)c2c3c(sc2n1)COC(C)(C)C3,-4.0%,26.9%,4.4%,-0.8%,-2.8,-22.5%,-0.2
O=C(CCS(=O)(=O)Cc1ccccc1)NCCc1ccccc1,6.6%,-3.0%[15.4 µM],0.6%,-1.4%,1.6,-12.4%,-1.8
CCOC(=O)CSCC(=O)Nc1nnc(-c2cccc([N+](=O)[O-])c2)s1,16.9%,6.7%,0.1%,0.1%,-2.2,-20.2%,6.1
Cc1ccc(S(=O)(=O)N2CCCN(S(=O)(=O)c3ccccc3Br)CC2)cc1,nt,nt,-0.9%,-2.2%,0.3,-7.2%,nt
O=C(NC1CC2CCCC(C1)N2S(=O)(=O)c1ccccc1)C1CCCCC1 (stereo not drawn),2.1%,-22.4%,0.4%[38.3 µM],-0.6%,0.4,-10.4%,0.9
Cc1cc(C)cc(NC(=S)NN)c1,15.5%,9.2%[15.4 µM],0.2%,nt,-1.4,-4.6%,-0.5
COC(=O)c1ccc2[nH]c(C(C)(C)O)c(C)c2c1,10.9%,nt,2.1%,-2.5%,-1.6,5.3%,1.9
Cc1ccc2nc(N(CCCN(C)C)C(=O)c3ccc4ncsc4c3)sc2c1,39.8µM*,26.8%,3.7%,-0.5%,-2.0,11.5%,-3.3
COc1ccccc1OCC(=O)Nc1cc(S(=O)(=O)N2CCOCC2)ccc1N1CCCCC1,nt,-6.8%[15.4 µM],2.7%,-71.5%,-5.7,-18.4%,nt
O=C(/C=C/c1ccc2c(c1)OCCO2)c1ccc(O)cc1,-4.0%,11.9%[15.4 µM],-0.1%,nt,0.9,-5.5%,5.4
Cc1nn(C)cc1CNCc1ccc(OCC(O)CN(C)Cc2ccccc2)cc1 (stereo not drawn),15.6%,-102.7%[inhibitor],0.1%,1.0%,-6.6,-3.4%,0.8
O=S(=O)(Nc1ccccc1N1CCOCC1)c1cccs1,nt,-3.7%[15.4 µM],0.8%,0.2%,-2.1,11.3%,nt
C#CCOCCOCCOCCNc1nc(N2CCN(C(=O)C([C@@H](C)CC)n3cc(C(N)COC(=O)C(F)(F)F)nn3)CC2)nc(N2CCN(C(=O)[C@H](Cc3ccc(O)cc3)n3cc(C(N)[C@H](C)CC)nn3)CC2)n1 (stereo partly drawn),nt,-12.0%,0.6%,0.7%,-1.1,4.8%,nt
CN(C(=O)c1cccc(NC(=O)Cc2cccc(NC(=O)C3CCCN(C(=O)c4ccccc4)C3)c2)c1)C1CCC1 (stereo not drawn),nt,nt,-1.4%,-0.2%,1.7,?,nt
N#CC1=C(N)OC2=C(C(=O)CCC2)C1c1ccoc1 (stereo not drawn),7.9%,-5.3%[15.4 µM],-0.9%,nt,-7.2,6.3%,-3.4
CCOc1ccc2[nH]c3nc(SCC(=O)NCC4CCCO4)nnc3c2c1 (stereo not drawn),9.8%,17.4%[15.4 µM],1.3%,-1.4%,-1.9,-8.8%,5.3
Cc1cc2oc(C(=O)N(Cc3ccccc3)C3CCS(=O)(=O)C3)cc(=O)c2cc1Cl (stereo not drawn),10.5%,-15.1%,?,-1.3%,-2.5,-6.9%,1.8
CC(=O)c1c(C)cc(C)c(CSc2ccccn2)c1C,-7.7%,-2.0%[15.4 µM],0.3%,0.2%,-0.3,9.3%,0.2
O=C(NCc1nc(-c2ccc(C(F)(F)F)cc2)no1)Nc1ccc(OC(F)(F)F)cc1,28.5%,-24.6%,2.2%,nt,-0.8,-10.5%,1.4
CC(C)Oc1cc(N)c(Cl)cc1Cl,6.7%,0.0%,6.0%,nt,1.3,-7.0%,1.5
Cc1ccccc1-n1ncc2c(SCC(=O)NCc3cccs3)ncnc21,-9.3%,3.6%,3.3%,0.3%,-4.1,21.5%,0.4
O=C(Cc1c(F)c(F)c(F)c(F)c1F)Nc1nc(-c2ccccc2)cs1,-13.4%,-6.5%[15.4 µM],?,1.9%,0.8,-11.3%,-4.2

# (listing goes on)
SMILES,Sfp PPTase inh,gsp ag,PINK1 expr mod,ClpP mod,D2 agonist,gsp antag,Menin-MLL FL inh
CN(C1CCCCC1)S(=O)(=O)c1ccc(C(=O)N2CCN(c3nc4ccccc4s3)CC2)cc1,1.2%,?,7.0%,1.6%,-3.3,6.3%,1.9
CCc1ccc(C(=O)CSc2nnc(C)c(=O)[nH]2)cc1,14.2%,-5.4%,1.4%[38.3 µM],-0.1%,-2.1,-8.4%,2.0
Cc1cc(C)n2nc(C(=O)N3CCCC(Nc4ccc(C(C)C)cc4)C3)cc2n1 (stereo not drawn),7.9%,29.7%,-1.6%,3.9%,-2.3,7.0%,-3.1
C=CCSc1nc2sc3c(c2c(=O)n1CC=C)CCc1ccccc1-3,44.7µM*,-32.4%,-0.6%,-8.8%,2.1,-3.2%,6.4
NC(=O)c1cc([N+](=O)[O-])ccc1NCc1cccc(N)c1,nt,25.0%,-0.8%,-4.3%,-5.1,-5.3%,nt
CC1CN(C(=O)c2ccc([N+](=O)[O-])s2)CC(C)O1 (stereo not drawn),nt,-2.3%,0.1%,-0.3%,-2.5,6.9%,nt
Cc1ccccc1N1CCN(C2CCCN(C(=O)CCC(F)(F)F)C2)CC1 (stereo not drawn),11.8%,-32.6%[inhibitor],0.7%,0.7%,-4.9,3.4%,-5.3
N#Cc1c(OCC(=O)c2ccccc2)nc2c(c1-c1ccco1)CCc1ccccc1-2,-16.5%,16.0%,0.3%[38.3 µM],?,-2.7,-6.4%,8.9
COc1ccc(S(=O)(=O)Oc2ccc3cccc(N)c3c2)cc1,nt,-23.6%[15.4 µM],11.7%,nt,7.7,-6.7%,nt
CCNc1ncc2nc(-c3cc(F)cc(F)c3)c(=O)n(-c3ccc(OC)cc3)c2n1,2.4%,nt,11.5%,nt,nt,nt,?
Oc1ccc2ccccc2c1C=NC1CCCCC1,-27.9%,23.5%,2.4%,nt,13.7,5.2%,6.8

# From PubChem
